CBX7 inh = CBX7 inhibition, primary AlphaScreen; O95931; actives 1.1% (n = 66,000); AID 1224903; normalised signal (fraction of DMSO) (no concentration beside the values); AlphaScreen His6-CBX7 / biotin-H3K27me3 peptide binding; hits give low values; in the data active = normalised signal below about 0.5;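 also: 100 nL library stock added to about 20 µL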
Target sequence (O95931 whole entry, looked up): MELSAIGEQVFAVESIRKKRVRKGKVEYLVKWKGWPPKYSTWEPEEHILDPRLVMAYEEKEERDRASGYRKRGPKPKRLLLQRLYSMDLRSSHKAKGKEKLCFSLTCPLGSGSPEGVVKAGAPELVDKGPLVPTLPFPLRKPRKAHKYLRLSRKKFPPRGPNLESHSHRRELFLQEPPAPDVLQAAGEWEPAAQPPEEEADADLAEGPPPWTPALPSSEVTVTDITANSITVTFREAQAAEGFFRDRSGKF
CBX7 inh z-score = also measured in CBX7 inh; calls as there; z-score; measured here: z-score of CBX7 signal; some inactives read as strong as hits; reference of the scale not given here;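 same signal on another scale; lower means less binding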
Numbers without * were called inactive. Only part of the results is shown, so the mix of outcomes need not match the whole.

mol,CBX7 inh,CBX7 inh z-score
CCOC(=O)c1c(NC(=O)COc2ccccc2C)sc2c1CCC(CC)C2 (stereo not drawn),1.1,1.1
CCOC(=O)c1cccc(NC(=O)CS(=O)(=O)Cc2nc(-c3ccccc3C)oc2C)c1,0.8,-3.7
CCN1CCN(C(=O)C2CCN(C(=O)c3cc4sccc4n3Cc3ccc(F)cc3)CC2)CC1,1,1.5
CCOC(=O)N1CCN(c2c(N3CCCCCC3)c(=O)c2=O)CC1,1,-0.0017
O=C(CSc1nnc(-c2ccccc2)o1)N1CCCc2ccccc21,0.9,-0.24
COc1ccc(/C=C/c2nc(=O)c(-c3ccccc3)c(C)n2-c2ccccc2)cc1OC,0.89,-1.8
CC1(C)CC(=O)C2=C(C1)N(c1cccc(F)c1)C(=O)CC2c1cccs1 (stereo not drawn),1.2,1.8
COc1cc2c(cc1NC(=O)c1c(-c3ccccc3Cl)noc1C)oc1ccccc12,0.99,-0.29
COc1ccc(-c2nc(CSCC(=O)N3CCCc4ccccc43)c(C)o2)cc1OC,0.81,-2.6
O=C(c1ccc2c(c1)OCO2)c1cn(Cc2ccccc2)c2ccc(F)cc2c1=O,0.78,-0.78
CCCC1CCC(c2ccc(-c3noc(-c4ccc(O)c(F)c4)n3)cc2)CC1 (stereo not drawn),0.49*,-0.67*
CCOc1ccc(N(CC)S(=O)(=O)c2ccc3c(c2)CCC(=O)N3)cc1,1,0.87
O=C(NCCc1ccccc1Cl)c1ccc2nc(-c3cccs3)c(-c3cccs3)nc2c1,1,0.037
COc1ccc(N2CCN(C(=O)Cc3cn(C)c4ccccc34)CC2)cc1,0.95,-0.56
Cc1ccc(CNC(=O)c2cc(=O)[nH]c3ccc(Br)cc23)cc1,1,0.54
CCN(CC)c1nc(=O)n(-c2nc(-c3ccccc3)oc2-c2ccccc2)cc1Cl,0.94,-1.3
O=c1c(Cc2ccccc2)c[nH]c2ccccc12,0.96,-0.83
CC(NC(=O)CN1CCN(Cc2ccc(Cl)cc2)C1=O)c1ccc2c(c1)OCCO2 (stereo not drawn),0.93,-1.1
COc1ccc(-c2nc(CN3CCC(C(=O)NCc4cccnc4)CC3)c(C)o2)cc1,1,1.5
Cc1c(C(=O)N2CCN(Cc3ccccc3)CC2)sc2ncnc(N3CCOCC3)c12,1,-0.00074
CC1=C(C(=O)Nc2cccc(C)n2)C(c2ccc3c(c2)OCO3)C2=C(CCCC2=O)N1 (stereo not drawn),1,0.35
O=C(CN1CCOc2ccccc21)NCc1cccs1,1.1,1.5
CCCNC(=O)C(Cc1ccccc1)NS(=O)(=O)c1ccc2c(c1)CCC(=O)N2 (stereo not drawn),1,-0.031
CCCCCC(=O)Nc1ncc2c(n1)CC(c1cccs1)CC2=O (stereo not drawn),1,0.48
Cc1ccc(S(=O)(=O)N2CCCC(C(=O)NCCCN3CCCCC3)C2)cc1 (stereo not drawn),1,0.3
CC(CC(=O)NCc1ccccc1Cl)CC1=NS(=O)(=O)c2ccccc2N1 (stereo not drawn),1.2,1.9
CCc1cccc(NC(=O)C2(S(=O)(=O)c3ccc(Cl)cc3)CC2)c1,1.1,3.8
COc1ccc(-c2nc(NC(=O)c3cccnc3)sc2C)cc1,1,0.5
Clc1ccc(-c2nc3cc(NCc4ccc5c(c4)OCO5)ccc3o2)c(Cl)c1,2,24
CCOc1ccc(N2C(=O)CC(N3CCSCC3)C2=O)cc1 (stereo not drawn),1,0.55
COc1ccccc1C(=O)NCCc1nc2ccccc2n1C,1.1,0.85
Cc1cc(F)ccc1N1C(=O)Cn2cccc2C1C(=O)NC1CCCCC1C (stereo not drawn),1,0.33
O=C(NCCC(c1ccccc1)c1ccccc1)c1cnc2ccccn2c1=O,1,0.31
C=CCN1C(=O)c2ccccc2Sc2ccc(C(=O)NCCCC)cc21,0.97,-0.71
O=C(CSc1nnc(CNC(=O)c2c(F)cccc2Cl)o1)Nc1nc2ccccc2s1,0.92,-1.2
CC(C)c1ccc(NS(=O)(=O)c2ccc3c(c2)n(C)c(=O)c(=O)n3C)cc1,0.76,-3.7
Cc1ccc(NC2c3ccccc3C(=O)N2c2ccc(Cl)cn2)cc1 (stereo not drawn),0.86,-2
COCCNC(=O)c1c[nH]c2ccc(S(=O)(=O)Nc3cccc(OC)c3)cc2c1=O,1.1,0.77
Cc1ccc(CNC(=O)c2c(-c3ccccc3)noc2C)cc1,1,0.95
CC(C)CCN1C(=O)CCC1(C)C(=O)NC1CCCCCC1 (stereo not drawn),1.3,3.5
CC1CCCN(CCCNC(=O)Cn2nc(Cc3ccncc3)c3ccccc3c2=O)C1 (stereo not drawn),0.96,-1.3
COCCNC(=O)c1cc(-c2ccccc2O)on1,1,0.04
O=c1c2ccccc2nc(-c2ccccc2Cl)n1Cc1c(F)cccc1F,1.1,2.1
CCOc1ccc(CCNC(=O)CCc2nc(-c3ccccc3F)no2)cc1OCC,0.95,-1
FC(F)(F)c1cccc(Cn2c(-c3cscn3)nc3ccccc32)c1,1,0.28
Cc1cc2c(o1)-c1c(oc3ccc(Cl)cc13)CCC2(C)c1ccccc1 (stereo not drawn),0.98,-0.42
O=C(COc1cccc(C(F)(F)F)c1)Nc1ncc(Cc2ccccc2Cl)s1,1.1,1.2
CCOc1ccc(C(=O)Nc2ccc3nc(N(CC)CC)cc(C)c3c2)cc1,1.2,2.6
Cc1cccn2cc(-c3cccc(NC(=O)c4cccs4)c3)nc12,0.92,-1.5
Cc1ccc(C)c(-c2[nH]c(-c3ccc(O)cc3)nc2-c2ccccc2)c1,0.58,-6.5

(listing goes on)
mol,CBX7 inh,CBX7 inh z-score
CN1CCN(c2nc(-c3ccc(Cl)cc3)cc(C(F)(F)F)n2)CC1,0.97,-0.82
COc1ccc(C2=NOC(C(=O)NCCc3ccc(OC)c(OC)c3)C2)cc1 (stereo not drawn),1.1,1.2
Oc1ccc(Cc2ccccc2)cc1CNc1ccc2oc(Cc3ccc(Cl)cc3)nc2c1,0.61,-9.8
CCOC(=O)c1cnc2c(OC)cccc2c1NCCc1ccc(OC)c(OC)c1,0.81,-0.21
CCc1ccc(OCc2nc(-c3ccncc3)no2)cc1,1.1,0.15
CC1=C(C(=O)Nc2ccc(C)cn2)C(c2cccnc2)C2=C(CCCC2=O)N1 (stereo not drawn),1.1,0.95
Cc1ccc(Cn2nnc3c(=O)n(CC(=O)N4CCCCC4)cnc32)cc1,1,0.39
Cc1noc(/C=C/c2cccs2)c1S(=O)(=O)N1CCCC(C(=O)N2CCCCC2)C1 (stereo not drawn),0.92,-1.4
Cc1ccccc1-c1nnc(SCC(=O)N2CCOCC2)o1,0.95,-0.12
Cc1ccc2cc(CCNC(=O)c3ccc(F)c(F)c3)c(=O)[nH]c2c1,1,0.42
COc1ccc(N(CC(O)Cn2c(C)nc3ccccc32)S(=O)(=O)c2ccccc2)cc1 (stereo not drawn),1,0.57
Cc1csc(NC(=O)Cn2nc(Cc3cccnc3)c3ccccc3c2=O)n1,1.1,2.7
CCOC(=O)c1cccc(NC(=O)CCc2c(C)nc3cc(-c4ccccc4)nn3c2C)c1,1,0.14
c1cncc(CNc2ncnc3ccccc23)c1,1.1,0.6
CCOc1cccc2nc(NC(=O)c3ccc(Oc4ccccc4)cc3)sc12,1,0.29
COc1ccc(CNC(=O)C2CCCN(C(=O)c3cnn(-c4ccccc4)c3-n3cccc3)C2)cc1 (stereo not drawn),0.99,-0.52
O=C(NCc1ccc(Cl)cc1)c1ccc(CNS(=O)(=O)c2ccccc2)cc1,0.94,-0.28
COc1ccc(C2CC(=O)N(CC(=O)Nc3cc(C)cc(C)c3)c3ccccc3S2)cc1 (stereo not drawn),0.87,-2.1
COc1ccc(C2c3[nH]c4ccccc4c3CCN2C(=O)c2ccc(F)cc2)cc1 (stereo not drawn),0.76,-3.1
Cc1ccc(S(=O)(=O)Nc2cccc(-c3cn4cccc(C)c4n3)c2)c(C)c1,1.1,1.1

A different layout for 3 compounds above:
Every second line gives: CBX7 inh	CBX7 inh z-score
- CCOc1ccc(N2C(=O)CC(N3CCSCC3)C2=O)cc1 (stereo not drawn)
  1	0.55
- COc1ccccc1C(=O)NCCc1nc2ccccc2n1C
  1.1	0.85
- Cc1cc(F)ccc1N1C(=O)Cn2cccc2C1C(=O)NC1CCCCC1C (stereo not drawn)
  1	0.33

Additional structures follow:
mol,CBX7 inh,CBX7 inh z-score
COc1ccc(-c2nc(C(=O)NCc3cccs3)c(C)o2)cc1OC,0.91,-1.5
CCOc1ccc(CCNC(=O)CN2CCN(Cc3cccc(Cl)c3)C2=O)cc1OCC,0.82,-2.3
COc1ccc(OC)c(NC(=O)CCc2c(C)nc3cc(-c4ccccc4)nn3c2C)c1,0.93,-2
CC1CCN(S(=O)(=O)c2ccc3[nH]cc(C(=O)NC4CCCCCC4)c(=O)c3c2)CC1,0.93,-1.1
Cc1ccc(-c2csc(Nc3ccccc3Cl)n2)cc1,1,1.6
O=S(=O)(c1ccc(Cl)cc1)c1nc(C(c2ccccc2)c2ccccc2)oc1N1CCOCC1,0.65,-12
CCN1CCN(Cc2ccc(NC(=O)Nc3ccccc3)cc2)CC1,1.2,0.2
CCOC(=O)c1sc2nc(C)n(CC(=O)Nc3ccccc3F)c(=O)c2c1C,1,0.32
CCOc1ccc(-c2cc(C(=O)NCCC3=CCCCC3)c3ccccc3n2)cc1,1.2,3.5
Cc1ccc(-c2[nH]c(-c3ccc(F)cc3)nc2SCC(=O)Nc2ccc3c(c2)OCCO3)cc1,1.1,2.7

Two records picked at random from those above, as already listed:
mol,CBX7 inh,CBX7 inh z-score
CCN1CCN(Cc2ccc(NC(=O)Nc3ccccc3)cc2)CC1,1.2,0.2
CCOc1ccc(CCNC(=O)CN2CCN(Cc3cccc(Cl)c3)C2=O)cc1OCC,0.82,-2.3

New compounds follow.
mol,CBX7 inh,CBX7 inh z-score
Cc1onc(-c2ccccc2)c1C(=O)NCc1ccccn1,1.1,0.07
O=C(c1cc(-c2ccccc2O)on1)N1CCCC1,1,0.0022
COc1ccc(-n2nc(C(=O)Nc3ccc(F)c(Cl)c3)c3ccccc3c2=O)c(OC)c1,1.1,2.9
CCN(C(=O)CCc1nc(-c2ccc(OC)cc2)no1)c1cc(Cl)ccc1OC,0.77,-3.2
O=C(NC1CCN(Cc2ccccc2)CC1)C1CCN(c2nnc(-n3cccc3)s2)CC1,1.6,6.2
CCC(c1ccccc1)c1nc(-c2ccc(OC)cc2)no1 (stereo not drawn),1.1,1.1
CCC(=O)Nc1ccc(-c2nc3cc(Cl)ccc3o2)cc1,0.96,-1.1
CC(c1cccnc1)N(CCN(C)C)C(=O)Nc1ccc(Cl)c(Cl)c1 (stereo not drawn),1,1.8
Cc1ccn2c(NC(=O)COc3ccccc3)c(-c3ccccc3)nc2c1,1.1,1
O=C(CCCN1CCc2c([nH]c3ccc(F)cc23)C1)c1ccc(F)cc1,0.86,-3.7
COc1cccc(NC(=O)c2cc3c(s2)-c2c(C)cccc2OC3)c1,1.1,3.4
COc1cccc(Nc2cc(C)nc3c(C)cc(C)cc23)c1,0.9,-1.5
Cc1ccc(C)c(CN2C(=O)c3ccccc3S(=O)c3ccc(C(=O)N4CCCC4)cc32)c1 (stereo not drawn),0.91,-1.4
CCCOc1ccc(C(=O)Nc2ccc(Br)cn2)cc1,1.2,6.3
CNC(=O)c1cc(-c2ccc(OC)c(OC)c2)nc2ccccc12,1,0.53
CCOc1ccc(NC(=O)CN2C(=O)COc3ccc(S(=O)(=O)N4CCC(C)CC4)cc32)cc1,0.88,-1.3
Cc1cc2c(o1)-c1c(oc3c(Br)cc(Br)cc13)CCC2C (stereo not drawn),1,0.24
COc1ccccc1N1CCN(C(c2cccs2)C(C)NC(=O)c2cccnc2)CC1 (stereo not drawn),0.93,-1.6
Cc1ccc(-n2ncc(C(=O)Nc3ccccc3F)c2C2CCN(C(=O)OC(C)(C)C)CC2)cc1,0.96,-1.3
Cc1ccc(-c2ccc(=O)n(CCC(=O)NCc3ccc4c(c3)OCO4)n2)cc1,1,0.25

The last 5 entries of the part before open the next one:
mol,CBX7 inh,CBX7 inh z-score
CCOc1ccc(NC(=O)CN2C(=O)COc3ccc(S(=O)(=O)N4CCC(C)CC4)cc32)cc1,0.88,-1.3
Cc1cc2c(o1)-c1c(oc3c(Br)cc(Br)cc13)CCC2C (stereo not drawn),1,0.24
COc1ccccc1N1CCN(C(c2cccs2)C(C)NC(=O)c2cccnc2)CC1 (stereo not drawn),0.93,-1.6
Cc1ccc(-n2ncc(C(=O)Nc3ccccc3F)c2C2CCN(C(=O)OC(C)(C)C)CC2)cc1,0.96,-1.3
Cc1ccc(-c2ccc(=O)n(CCC(=O)NCc3ccc4c(c3)OCO4)n2)cc1,1,0.25
COc1ccc(CCNc2oc(-c3ccc(C)cc3)nc2C#N)cc1OC,1.4,1.5
CN(CC(=O)NCc1cccs1)S(=O)(=O)c1cccc2cccnc12,0.93,-1.5
Cn1c(=N)n(CC(O)c2cccs2)c2ccccc21 (stereo not drawn),0.99,-0.42
COc1ccc(NC(=O)C(c2ccccc2)N2CCCC2)cc1 (stereo not drawn),0.97,-0.72
Cc1cccc(CN2CCN(CC(=O)NCc3ccc(Cl)c(Cl)c3)C2=O)c1,1.1,2.3
Cc1ccc(C(=O)Nc2cc(-c3nc4ccccc4s3)ccc2C)cc1,1,1.4
COc1ccc(CNC(=O)Cn2nc(C)c3ccccc32)cc1OC,0.94,-2.9
Cc1ccc2cc(CCNC(=O)c3cccc(C(F)(F)F)c3)c(=O)[nH]c2c1,1.1,3.1
O=C(COc1ccc(Br)cc1)Nc1ccc2oc(-c3cccnc3)nc2c1,0.99,-0.19

High-throughput results: PubChem BioAssay, several laboratories
